gsp antagonist: antagonists of gsp mutant (McCune-Albright syndrome). 0.4% of 340,000 active. AID 624288. Potency, µM (highest dose often 76.9 µM), inactives show at the highest dose activity change, negative = inhibition, most hits filed as inhibitors. gsp-mutant cells, cAMP HTRF, 30 min; control for the full effect not named in the record; active = falling curve of any shape with a large fitted effect; inconclusive = falling curve, mostly with a smaller effect; inactive = flat or rising curve; cell line not stated here;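 further: intracellular cAMP measured with PDE inhibitor Ro 20-1724 present during compound exposure; potency means the concentration at half of the fitted maximal effect; on the % scale 0 is the no-effect control and ±100 the full control effect; nearly all actives have a fitted effect of over 65% in size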
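HTRF cAMP measurement after 30 min RT detection following 30 min, 37C compound treatment alongside […] (added as 300 uM solution) in G418-selected cells seeded at 2000/well and grown 16–24 h.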
ClpP mod: qHTS Assay for Activators of ClpP. ATP-dependent Clp protease proteolytic subunit (Bacillus subtilis (strain 168)), P80244. purified B. subtilis ClpP, FRET peptide cleavage, 20 min. Potency, µM (doses to about 57.5 µM), for the others: at the top dose activity change, negative = active. 1.9% of 340,000 active. AID 651965, 2013; active = well fitted falling curve with a large enough effect; inconclusive = small, poorly fitted or top-dose-only effect; inactive = no such curve, though single readings can be large or run the other way; further: potency means the concentration at half of the fitted maximal effect; the source files actives as falling curves though it sought activators and does not explain the sign; nearly all actives have a fitted effect of over 65% in size; many hits overshoot -100%
Target sequence (P80244 whole entry, looked up): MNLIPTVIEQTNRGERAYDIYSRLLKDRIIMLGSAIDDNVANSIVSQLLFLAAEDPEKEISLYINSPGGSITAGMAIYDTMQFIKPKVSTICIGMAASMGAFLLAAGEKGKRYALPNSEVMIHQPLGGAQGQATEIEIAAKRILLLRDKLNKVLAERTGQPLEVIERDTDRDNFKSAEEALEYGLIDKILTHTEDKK
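Purified B. subtilis ClpP, 10 microg/mL final in Tris/HCl pH8 with KCl, BSA, glycerol and Tween-20, cleaved an Abz/nitrotyrosine-quenched decapeptide. Fluorescence (ex 320, em 430) was read at 0 and 20 min at room temperature. Delta was normalized to 5.8 microM ADEP and DMSO/no-enzyme controls.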
TRPML1 inh: blocks the human TRPML1 channel | Q9GZU1 | TRPML1-inducible cells, Ca2+ dye fluorescence, FDSS; hits give low values; inhibition of EC80 agonist-evoked calcium signal | activity change, negative = inhibition, % (no concentration beside the values) | 0.02% of 390,000 active | AID 624415; in the data active means activity change below about -50%; inconclusive means about -30% to -50%; inactive means above about -30%;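 further: stimulus is agonist 54-4 at its EC80 concentration; on the % scale 0 is the no-effect control and ±100 the full control effect; compound concentration not given in the record; the text of the record puts the active cut at -80%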
Target sequence (Q9GZU1 whole entry, looked up): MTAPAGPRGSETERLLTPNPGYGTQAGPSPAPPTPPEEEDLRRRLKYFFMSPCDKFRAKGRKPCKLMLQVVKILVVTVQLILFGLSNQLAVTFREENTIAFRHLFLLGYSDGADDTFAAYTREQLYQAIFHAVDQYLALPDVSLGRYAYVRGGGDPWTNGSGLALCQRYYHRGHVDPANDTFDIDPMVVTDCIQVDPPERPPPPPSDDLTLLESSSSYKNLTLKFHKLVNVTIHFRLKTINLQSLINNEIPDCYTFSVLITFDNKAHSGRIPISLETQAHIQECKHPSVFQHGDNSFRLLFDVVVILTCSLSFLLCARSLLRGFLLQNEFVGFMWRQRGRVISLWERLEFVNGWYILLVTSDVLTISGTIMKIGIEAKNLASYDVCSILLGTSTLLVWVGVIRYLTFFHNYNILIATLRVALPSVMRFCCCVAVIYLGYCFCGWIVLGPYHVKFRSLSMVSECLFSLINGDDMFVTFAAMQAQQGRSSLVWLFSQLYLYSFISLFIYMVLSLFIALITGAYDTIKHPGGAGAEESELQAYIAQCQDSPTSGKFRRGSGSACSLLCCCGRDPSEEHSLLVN
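Calcium fluorescence in TRPML1-DL cells induced overnight with Tet: a 110 s read after compound pin addition, then a 110 s antagonist read after challenge with 54-4 at 4 uM final (EC80).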
Menin MLL FP FL: displaces fluorescein MLL peptide from human menin | Fluorescence polarization, fluorescein-MLL peptide displacement from menin | FP activity change, % at 61.4 µM | 290,000 tested, under 10 active | AID 1766; inconclusive = falling polarisation curve, or a change in total fluorescence; inactive = total fluorescence flat and polarisation flat or rising; no compound was filed as active; the % refers to the polarisation; negative = inhibition;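 further: % of control where 0% means no effect; inhibitors lower the polarisation; unlabelled MLL peptide was the positive control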
gsp ag: gsp mutant agonism; Potency, µM (highest dose often 76.9 µM), for the others: at the highest dose activation (cAMP increase), usual class: activators; 0.13% of 340,000 active; gsp mutant cells, cAMP HTRF, 30 min; control for the full effect not named in the record; active = well fitted activation curve with a large enough effect; inconclusive = small, poorly fitted or top-dose-only effect, or another doubt; inactive = no such curve, though single readings can be large or run the other way; cell line not stated here;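 further: phosphodiesterase inhibitor Ro 20-1724 added with compounds to block cAMP breakdown; potency means the concentration at half of the fitted maximal effect; nearly all actives have a fitted effect of over 60% in size; about a fifth of the inactives were tested at one dose only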
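Cells in DMEM/10% FBS with G418 were pretreated with compounds in DMSO plus […] (300 uM stock) for 30 min at 37C. cAMP was measured by HTRF (cAMP-d2 plus anti-cAMP antibody-K) after 30 min at room temperature.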
TRPML1 ag: human mucolipin-1 channel agonism. TRPML1-expressing cells, Ca2+ dye fluorescence, FDSS; host cell line not named in the record; reference of the full effect not given here. activation, % (no concentration beside the values). 0.12% of 410,000 active. AID 624414; in the data active = activation above about 50%; inconclusive = about 30% to 50%; inactive = below about 30%; further: 0% is about no effect; the text of the record puts the active cut at 80%
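Agonist activity was taken from a 110 s kinetic Ca2+ dye read on the FDSS after pinning compounds onto TRPML1-DL cells. The cells were seeded at 1,500/well with Tet inducer, incubated about 16 h, then dye-loaded at room temperature.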
* = called active by the depositor; ? = inconclusive; . = no result given; & = joins results of further samples; [ ] = dose if it differs, or a comment.

SMILES	gsp antagonist	ClpP mod	TRPML1 inh	Menin MLL FP FL	gsp ag	TRPML1 ag
CN(C)c1ccc(C=NCCC2(O)CCOC(C)(C)C2)cc1 (stereo not drawn)	5.5%	-5.7%	7.9	-0.8	25.5%	-0.5
NC(=S)N/N=C/c1c(O)c(Br)cc2oc3c(c12)CCCC3	-12.0%	.	6.9	0.2	-4.0%[15.4 µM]	1.6
Nc1nnc(-c2cccnc2)s1	-0.7%	-11.8%	7.7	0.1&-1.0	22.0%	-0.2
COC(=O)c1ccc(CSc2nnc(-c3ccncc3)o2)o1	11.9%	-4.1%	-9.4	2.2	-7.9%[15.4 µM]	0.7
COc1cc(C2c3c(oc4ccc(F)cc4c3=O)C(=O)N2c2nc(C)c(C)s2)cc(OC)c1OC (stereo not drawn)	.	1.4%	48.5	.	.	2.3
CC(C)c1cnc2c(c1SCC(=O)Nc1ccc(OC(F)(F)F)cc1)c(=O)n(C)c(=O)n2C	.	-0.3%	-22.5	.	.	2.9
Cc1cccc(C)c1NC(=O)CSc1nnc(-c2ccco2)c(-c2ccco2)n1	-9.3%	1.3%	6.5	?	9.0%[15.4 µM]	2.6
O=C(COC(=O)Cc1ccccc1F)Nc1ccc2[nH]c(=O)[nH]c2c1	10.5%	-1.7%	0.1	.	-16.3%	-0.1
N#CCSc1nnc(-c2cccnc2)n1-c1ccccc1	7.8%	-1.0%	-7.1	-1.9	6.4%	-0.1
N=c1cc(C2(O)CCCCC2)n2c(nc3ccccc32)s1	-11.2%	0.1%	-14.8	4.8	-31.1%[inhibitor]	-0.1
O=C(COC(=O)Cc1cn2ccsc2n1)Nc1nc2ccccc2s1	-19.9%	0.7%	-9.8	1.3	-7.1%	-0.4
O=C1c2ccccc2C(=O)N1CCCc1c[nH]c2ccccc12	-0.7%	-1.8%	-0.9	1.7	3.0%	3.5
Cc1c(C(=O)NC2CCC(C)CC2)oc2ccccc12 (stereo not drawn)	3.9%	-1.8%	-12.5	.	?	0.2
COc1ccc(-c2noc(CCC(=O)N3CCN(c4cccc(C(F)(F)F)c4)CC3)n2)cc1	?	-3.8%	18.2	-0.6	-46.7%	0.9
O=C(COc1cccnc1[N+](=O)[O-])N1CCc2ccccc21	5.9%	.	-0.8	1.7	-30.4%[inhibitor]	-0.4
c1ccc(CCCNCC2COc3ccccc3O2)cc1 (stereo not drawn)	7.6%	.	-5.0	-2.9	-8.9%	-0.8
O=C(NCc1ccc(Cl)cc1)C(=O)NCC1OCCN1C(=O)c1cccs1 (stereo not drawn)	16.4%	1.8%	2.0	2.6	-4.7%[15.4 µM]	-0.5
CCCCCCCN1CCC(=O)N(CCO)CC1	7.7%	1.8%&-1.3%	11.7	-1.3	.	-0.4&0.2
O=C1OC[C@@H]2CCCN2C(=O)[C@@H](CC(=O)N(CCO)Cc2ccccc2)C/C=C\C[C@@H]1Cc1ccc(F)cc1	-18.6%	2.6%	-9.8	.	?	-0.6
Cc1ccccc1NC(=S)c1nc2ccccc2[nH]1	0.7%	3.7%	29.8	1.4	7.5%	1.6
Cc1ccc(S(=O)(=O)N(C)Cc2nc(-c3ccccn3)no2)cc1	-10.0%	0.4%	1.8	-4.6	5.7%	-0.8
CCC(=O)Nc1ccc(C(=O)OCc2ccc(Cl)c(Cl)c2)cc1	-9.5%	-2.5%	-10.7	0.1	-21.7%	-0.2
COc1ccc(-n2c(-c3ccc(F)cc3)cnc2SCC(=O)NCc2ccco2)cc1	-15.0%	1.3%	31.4	3.3	18.4%	2.1
COc1ccc(NS(=O)(=O)c2cccc(C(=O)NCc3ccco3)c2)cc1	-1.1%	-0.8%	3.8	.	3.9%	0.5
CC(C)(CNC(=O)C1CCCN1C(=O)c1cccs1)N1CCOCC1 (stereo not drawn)	.	.	10.7	0.0	5.6%[15.4 µM]	-0.3
Cc1ccc(C(=O)OC(C)C(=O)Nc2ccc(S(N)(=O)=O)cc2)cc1S(=O)(=O)N1CCOCC1 (stereo not drawn)	4.5%	0.6%	6.0	.	5.8%	-0.2
O=C(CC(C(=O)N1CCc2ccccc21)n1ccnc1)NCc1ccccc1 (stereo not drawn)	6.8%	-0.2%	11.4	-1.2	5.9%	-0.1
CCCCN(CC)CCNC(=O)c1ccc2c(Cl)c3c(nc2c1)CCC3	5.1%	-1.7%	0.3	-2.4	8.4%[15.4 µM]	0.4
CCCC(=O)Nc1nc2c(OC)ccc(OC)c2s1	1.8%	-7.4%	3.6	2.1	-72.4%[inhibitor]	-0.3
COc1ccc(N(C)C(=O)c2onc3c2CCCC3)cc1	3.5%	0.9%	0.2	4.3	2.7%	0.1
O=C(O)c1cc(N/N=C/c2c[nH]c3ccccc23)ccc1Cl	-9.0%	.	35.5	20.3	8.5%[15.4 µM]	-0.7
COc1cccc(N2CCN(Cc3nc(N)nc(Nc4ccccc4OC)n3)CC2)c1	-16.1%	0.2%	-2.1	4.2	12.1%	-1.5
O=C(N1CCN(c2ccccc2)CC1)C1(S(=O)(=O)c2ccc(Cl)cc2)CC1	-2.6%	.	-8.4	6.2	1.1%	0.0
Cc1ccc(S(=O)(=O)NN2C(=O)c3ccccc3NC2C)cc1 (stereo not drawn)	-3.2%	?	9.0	0.1	-4.4%	-0.3
COc1cccc(CNC(=O)C2CCCN(S(=O)(=O)c3c(C)noc3/C=C/N(C)C)C2)c1 (stereo not drawn)	-13.4%	-0.6%	-4.3	.	-16.7%	-0.1
Cc1c(S(=O)(=O)Nc2cc(Cl)ccc2Cl)c(=O)n(C)c(=O)n1C	-7.0%	2.2%	-6.7	3.1	26.6%	-0.1
CCc1nc2nc(C)cc(Nc3ccc(Br)cc3F)n2n1	.	0.1%	4.8	.	.	1.2
COCCCN1CCc2[nH]c(=S)[nH]c(=O)c2C1	7.2%	?	-3.0	2.1	-16.4%	-0.4
N#Cc1ccc(CC(C(=O)O)N2Cc3ccccc3C2=O)cc1 (stereo not drawn)	5.1%	-2.9%	-7.7	4.8	4.8%	1.0
O=C(N/N=C/c1ccc(O)cc1)c1ccncc1	11.5%	-1.8%	-7.0	0.9	0.2%[15.4 µM]	-0.8
O=C(NC1CC2CCCC(C1)N2Cc1ccccc1)c1ccc([N+](=O)[O-])cc1 (stereo not drawn)	-1.0%	0.6%	7.2	-10.5	?	-0.5
COc1ccc(OC(=O)c2nc(SCc3ccccc3F)ncc2Cl)cc1	.	-0.7%	3.7	.	.	0.4
COc1ccc(N2CCN(CC(=O)Nc3ccc(C)c(C)c3)CC2)cc1	-22.0%	-8.9%	1.4	-0.1	-24.1%	-0.2
COc1ccc(NCc2nnc(SCC(=O)Nc3ccc(OC)cc3)n2C)cc1	3.4%	.	15.0	-0.5	-48.7%	-0.5
CCCCNC(=O)c1cccc2c(=O)c(C)c(-c3ccccc3)oc12	6.0%	28.2µM*	-8.2	1.3	-1.3%	1.6
NC(=O)/C(=C/c1ccc2c(c1)OCO2)NC(=O)c1ccco1	7.3%	.	-0.4	4.7	-7.0%	-0.4
Cc1ccccc1C(=O)N1CCC(C(=O)Nc2cccc(F)c2)CC1	4.8%	-1.6%	37.9	4.6	-18.6%	0.4
O=C(NCCN1CCCCC1)Nc1ccccc1F	4.3%	-0.2%	35.5	1.1	-41.3%[inhibitor]	3.0
CCOC(=O)c1cn2nc(Oc3ccc(C(=O)OC)cc3)ccc2n1	-6.5%	.	-0.8	3.3	34.5%[15.4 µM]	0.0
CN(Cc1ccccc1)C(=O)COC(=O)c1ccc2ccccc2n1	3.7%	2.0%	-5.8	-0.1	0.7%[15.4 µM]	-1.2
O=C(O)CCSc1nnc(-c2ccncc2)n1-c1ccccc1	-0.6%	1.4%	35.3	-0.9	-1.6%	0.4
CCOC(=O)c1nnn(-c2nc(OC)nc(N(C)C)n2)c1-c1ccccc1	-3.4%	-0.3%	31.2	-0.1	-5.3%	4.0
COc1ccc(OC)c(-c2nnc(NC(=O)C(C)Sc3nncn3C)s2)c1 (stereo not drawn)	-8.0%	-21.9%	10.1	0.4	26.5%	-0.7
CS(=O)(=O)NN1C(=O)c2ccccc2NC1c1ccccc1 (stereo not drawn)	-3.0%	.	5.4	0.2	-8.0%[15.4 µM]	1.3
Cc1ccc(NC(=O)Cn2c(=O)n(CC(=O)NCCc3ccccc3)c(=O)c3ccccc32)cc1C	.	-10.4%	-9.7	.	.	-0.3
O=S(=O)(c1ccc(Cl)c2ccccc12)N1CCCC1	-17.6%	.	-4.1	2.3	-22.5%	0.2
COc1cc(Br)cc(C=Nc2cccc(C(F)(F)F)c2)c1O	-11.2%	2.9%	-21.9	16.0	-31.5%[inhibitor]	1.5
CCNC(=S)Nc1cc(OCC)c(NC(=O)c2ccco2)cc1OCC	2.7%	2.7%	27.3	3.9	-5.1%	1.6
Cc1onc(-c2ccccc2Cl)c1C(=O)NCc1ccc(N2CCCC2=O)cc1	-4.7%	0.7%	-9.6	-3.1	-64.2%[inhibitor]	-0.4
COc1ccccc1/C=C\C=N\n1c(C2CCCCC2)n[nH]c1=S	-4.0%	2.6%	-6.2	-0.5	-4.5%	0.1
The list goes on:
SMILES	gsp antagonist	ClpP mod	TRPML1 inh	Menin MLL FP FL	gsp ag	TRPML1 ag
CCC(=O)c1c(CC)c2n3c1CC[C@H]3CCC2	-1.6%	-1.1%	4.8	.	-6.4%	0.8
Cc1ccc(-n2nc3c(N4CCCC(C(=O)NCc5ccccc5C)C4)nnc(C)c3c2C)cc1 (stereo not drawn)	.	5.0%	51.8	.	.	3.3
COc1ccc([N+](=O)[O-])cc1NC(=O)CC(C)c1ccccc1 (stereo not drawn)	-4.3%	0.3%	29.8	1.1	-16.2%	0.7
COCCN(C/C=C/c1ccccc1)C/C=C/c1ccccc1	-13.6%	-0.9%	0.3	-10.4	9.9%[15.4 µM]	-0.4
CC1CN(C(=O)CN(C)S(=O)(=O)c2ccc3ccccc3c2)CC(C)O1 (stereo not drawn)	0.9%	-1.5%	-16.6	9.3	-5.6%	-0.5
CCOC(=O)c1ccc(NC(=O)C2CCCN(c3ncnc4onc(-c5ccc(F)cc5)c34)C2)cc1 (stereo not drawn)	.	?	19.2	.	.	-0.6
C/C(=N\NC(=O)c1ccc(Cl)c(Cl)c1)c1ccc(Br)s1	6.9%	-2.7%	-3.5	2.2	-7.4%[15.4 µM]	0.0
CC1(C)CC2CC(C)(CN2Cc2c(O)ccc3ccccc23)C1 (stereo not drawn)	2.9%	4.0%	-13.5	1.1	-57.2%[inhibitor]	0.4
CC(c1ccccc1)C(OC(=O)c1cccc([N+](=O)[O-])c1C(=O)O)c1ccccc1 (stereo not drawn)	4.9%	.	-8.3	.	?	-0.8
O=C(c1ccccc1F)N1CCc2ccccc21	-10.0%	-1.1%	-6.9	1.0	7.4%	-1.0
O=C(NCc1ccco1)C(c1ccncc1)N(CCC1=CCCCC1)C(=O)Cn1nnc2ccccc21 (stereo not drawn)	?	3.5%	2.8	0.9	-22.8%	-0.2

Source: PubChem
